Screening data deposited in PubChem BioAssay by several laboratories.
Bfl-1 A1 inh: inhibitors of the anti-apoptotic protein A1, read as caspase activation; MEF A1-2A-BIM cells, Caspase-Glo 3/7 luminescence, 3 h; percent of clofoctol response, vehicle zero; caspase activation, % (no concentration beside the values); 330,000 tested, 0.066% active;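 active = over half of replicate activation scores above 10%, or exactly half above 10 with the replicate mean above 10; inconclusive = replicate mean below 10 yet half the replicates above 10; inactive = over half of replicates below 10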;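 also: wells of about 30 µL received 50 nL stock; many hits fall short of the cut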
E coli growth: inhibitors of Escherichia coli growth | OD600, 23 h; hits give low values | 330,000 tested, 0.21% active | OD600 absorbance (concentration not given with the values);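 active = OD600 absorbance below the run mean of sample wells minus 3.6 SD, in any replicate, cut at about 0.56 in these data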;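 also: stock transfer was 300 nL into about 60 µL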
Beta cell apopt: blocks beta cell apoptosis; 300,000 tested, 0.8% active; protection from apoptosis, % (test concentration not listed); INS-1E cytokine-induced death, ATP luminescence, 48 h; percent of positive-control rescue, neutral wells zero;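 active = all replicates at 75% or more, or half of them and the mean; inconclusive = half reach 75% but not the mean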;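 also: 0% = cytokine-treated negative control wells and 100% = positive control rescue; higher means more ATP so stronger rescue from cytokine killing; wells of about 40 µL received 100 nL stock; the first replicate is given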
UCH37 DUB inh: blocks the human deubiquitinase UCH37. Q9Y5K5. purified proteasome/UCH37, Ub-AMC cleavage fluorescence. inhibition, % (concentration not given with the values). 330,000 tested, 0.33% active. AID 588478;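 active = mean of two replicates above 20%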;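 also: 0% = compound-free wells with enzyme and 100% = wells lacking proteasome; stock transfer was 100 nL into about 20 µL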
Target sequence (Q9Y5K5 whole entry, looked up): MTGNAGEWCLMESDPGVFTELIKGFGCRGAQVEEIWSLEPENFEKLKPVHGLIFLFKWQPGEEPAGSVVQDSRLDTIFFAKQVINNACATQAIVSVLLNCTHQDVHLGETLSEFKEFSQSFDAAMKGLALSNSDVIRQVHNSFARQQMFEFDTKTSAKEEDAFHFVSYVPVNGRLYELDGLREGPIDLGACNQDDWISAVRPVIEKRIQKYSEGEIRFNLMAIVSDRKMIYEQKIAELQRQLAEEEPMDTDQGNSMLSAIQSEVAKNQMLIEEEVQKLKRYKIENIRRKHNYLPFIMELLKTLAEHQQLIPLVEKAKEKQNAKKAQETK
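Material: Human UCH37 enzyme supplied as purified proteasome complex | Schedule: 30 min preincubation with enzyme, 25 min cleavage at room temperature | Detection: AMC fluorescence 355/460 nm | Measure: % inhibition of Ub-AMC cleavage fluorescence | Controls: Wells without proteasome as full block, compound-free enzyme plus substrate as uninhibited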
T cruzi inh: T. cruzi replication inhibition | T. cruzi beta-gal in NIH3T3, luminescence, 90 h | inhibition, % (no concentration beside the values) | 300,000 tested, 1.4% active | AID 1885;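 active = mean inhibition across valid replicates above about 55%, limit read from the data; inconclusive = mean below that limit but half or more replicates reach it; inactive = mean below it, under half of replicates reach it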;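 also: signal also drops with host cell toxicity which is not excluded here; 0% = plate median of DMSO wells and 100% = zero luminescence signal; higher percent means less beta-gal luminescence so fewer parasites; stock transfer was 50 nL into about 50 µL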
MLL AF4-AF9 inh: MLL-AF4/AF9 protein interaction inhibition; P42568; AlphaScreen, biotin-AF4 peptide binding to FLAG-AF9; inhibition, % at 10 µM; 350,000 tested, 0.47% active; AID 651704;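 active = every replicate reaching a set inhibition limit, whatever the replicate mean, cut at about 25% in these data; inconclusive = mean inhibition reaches that limit but some replicates miss it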;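 also: 0% = plate neutral control median and 100% = total signal loss; the record names both 10 and 1 µM as test concentration; the first replicate is given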
Target sequence (P42568 whole entry, looked up): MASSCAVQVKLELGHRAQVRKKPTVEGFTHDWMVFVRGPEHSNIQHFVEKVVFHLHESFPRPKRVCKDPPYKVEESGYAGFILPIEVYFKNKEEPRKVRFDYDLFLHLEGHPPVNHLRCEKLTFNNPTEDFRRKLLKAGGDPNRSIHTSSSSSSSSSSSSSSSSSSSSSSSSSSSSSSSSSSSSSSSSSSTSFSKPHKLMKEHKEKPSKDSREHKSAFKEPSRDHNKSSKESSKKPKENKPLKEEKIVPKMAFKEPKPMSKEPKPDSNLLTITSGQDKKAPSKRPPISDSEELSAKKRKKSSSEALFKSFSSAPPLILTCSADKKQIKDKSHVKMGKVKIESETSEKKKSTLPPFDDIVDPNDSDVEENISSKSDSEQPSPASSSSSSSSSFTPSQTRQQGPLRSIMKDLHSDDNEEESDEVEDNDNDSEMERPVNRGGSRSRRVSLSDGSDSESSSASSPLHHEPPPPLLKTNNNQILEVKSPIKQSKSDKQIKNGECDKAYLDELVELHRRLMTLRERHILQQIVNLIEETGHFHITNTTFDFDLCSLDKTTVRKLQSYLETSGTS
Ecoli rRNA inh: inhibits bacterial ribosomal RNA function over humanized ribosomes; GFP signal change (wild-type ribosome), % (concentration not given with the values); E. coli WT GFP vs humanized-ribosome RFP mutants, fluorescence, 24 h; hits give low values; DMSO median 0, no signal -100; 350,000 tested, 1.6% active;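 active = significant combined selectivity score with lowered wild-type GFP, culture density cut under 30%, mutant RFP and density less affected; inactive = any of these conditions unmet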; also: one replicate is shown; some compounds called inactive have numbers as strong as hits
FGF22 binding: binders of recombinant human FGF22 by thermal shift; Q9HCT0; SYPRO orange fluorescence; percent of sucrose octasulfate shift, DMSO zero; calls only at 9.99 µM; 340,000 tested, 1.5% active; AID 651658;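 active = melting point raised past a set limit in the mean and every replicate; inconclusive = no clear call; three in four hits are not shown here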
Target sequence (Q9HCT0 whole entry, looked up): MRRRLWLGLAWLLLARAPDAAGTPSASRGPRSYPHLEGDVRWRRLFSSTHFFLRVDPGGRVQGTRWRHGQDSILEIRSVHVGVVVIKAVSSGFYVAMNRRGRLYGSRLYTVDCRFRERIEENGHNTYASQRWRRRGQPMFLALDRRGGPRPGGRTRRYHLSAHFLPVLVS
Ecoli rRNA inh OD600: further read-out of Ecoli rRNA inh, marked with its call; OD600 change, %; measured here: OD600 growth;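 optical density of the mix in the first replicate; 0 = DMSO median and -100 = no signal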
Ecoli rRNA inh RFP: also measured in Ecoli rRNA inh; calls as there; RFP signal change, %; measured here: RFP humanized mutant strains;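 first replicate; 0 = DMSO median and -100 = no signal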
* hit, by the source's call; i = inactive; ? = inconclusive; . = no result given. This is a subset, so the mix of outcomes need not match the whole.

SMILES	MLL AF4-AF9 inh	FGF22 binding	T cruzi inh	Bfl-1 A1 inh	E coli growth	UCH37 DUB inh	Ecoli rRNA inh	Ecoli rRNA inh OD600	Ecoli rRNA inh RFP	Beta cell apopt
N/C(=N\S(=O)(=O)c1cc(C(F)(F)F)cc(C(F)(F)F)c1)c1ccncc1	-6.3	i	3.5	0.5	0.693	6.9	0.2	10.5	-1.6	-9.0
O=C(c1c(F)c(F)c(F)c(F)c1F)N1CCc2ccccc21	.	.	-7.4	-0.1	0.745	5.0	.	.	.	-0.8
Clc1cccc(Cn2ncc3ccccc32)c1	-0.5	i	1.9	0.2	0.615	3.8	-4.4	-10.1	8.6	-1.5
CC1CCCCN1C(=O)C1CC(c2ccc(F)cc2)=NO1 (stereo not given)	4.9	i	-0.8	0.9	0.7	3.7	2.7	-2.6	-6.9	1.7
CCOC(=O)C1=CC[C@H]2c3c(c4ccccc4n3C)C[C@H]1N2C	1.1	i	.	0.2	0.763	-2.4	-10.3	-9.8	26.9	-12.7
CCS(=O)(=O)N1CCC(c2nc(-c3ccc(C(F)(F)F)cc3)no2)CC1	.	.	-15.6	0.4	0.653	4.7	.	.	.	1.4
CC(C)N(Cc1cn[nH]c1-c1ccc(-c2ccccc2)cc1)Cc1nccn1C	24.1	i	16.6	2.7	0.654	6.2	-60.0	-79.2	-18.8	1.0
COc1ccc(C(CC(=O)O)c2ccc3c(c2)OCO3)cc1 (stereo not given)	-2.0	i	-4.6	0.7	0.648	0.8	2.8	1.9	-0.1	-0.9
C=CCn1c(CSc2nc3ccccc3s2)nnc1SCC(=O)NCc1cccnc1	.	.	6.5	0.2	0.704	4.7	.	.	.	1.9
CCc1c(C)c(C#N)c2nc3ccccc3n2c1NCCOC	-3.6	i	36.1	-0.1	0.638	-29.4	-0.1	-19.2	1.0	-2.8
O=C(CCCCCN1C(=O)[C@@H]2Cc3ccccc3CN2C1=O)Nc1ccccc1Cl	-1.7	i	8.7	-0.3	0.736	2.7	1.1	-12.1	-0.9	-0.2
Cn1cnnc1SCc1ccc(-c2ccc(Br)cc2)o1	.	.	4.7	0.4	0.731	-5.6	.	.	.	-7.4
Cn1nc(-c2ccccc2)c(COC(=O)c2cccc(Cl)c2)c1S(=O)(=O)c1ccccc1	.	.	1.0	-0.4	0.779	2.4	.	.	.	1.3
CCN(C(=O)COC(=O)c1ncc(Cl)c(Cl)c1Cl)c1c(N)n(Cc2ccccc2)c(=O)[nH]c1=O	-8.3	i	.	.	0.7	3.9	2.2	14.6	-0.3	.
O=[N+]([O-])c1cc(Cc2ccccc2)cc(C=Nc2ccc(N3CCOCC3)cc2)c1O	.	.	31.5	-0.4	0.677	0.8	.	.	.	-1.0
CC/C=C/C(=O)N1CC2(CC(c3cccc(NC(=O)CC(c4ccccc4)c4ccccc4)c3)=NO2)C[C@@H]1C(N)=O (stereo not given in full)	.	i	50.2	-0.9	.	0.5	5.8	-2.5	16.0	-3.9
Cc1cccc(C)c1NC(=O)c1ccc(-n2cnnn2)cc1	.	.	5.5	0.2	0.677	5.3	.	.	.	-2.3
O=C(/C=C/Nc1ccc(Br)cc1F)c1ccco1	3.6	i	7.8	0.6	0.731	-18.5	8.8	1.4	1.8	10.0
COc1ccc(OC[C@@H](O)CNC(=O)c2cccc3c2C(=O)c2ccc(Cl)cc2S3(=O)=O)cc1	-2.2	i	.	0.0	.	-1.1	-5.7	7.2	3.2	12.5
CCOC(=O)CNC(=S)n1cnc(N)n1	-2.3	i	3.8	-0.1	0.703	3.8	7.4	17.1	2.0	-3.7
Cc1ccc(N=Cc2c(O)[nH]c3ccccc23)c([N+](=O)[O-])c1	-0.9	i	7.1	-6.3	0.765	10.2	19.1	17.6	0.2	.
OCC[C@H]1C[C@H](O)[C@@H](O)[C@@]2(OCCCc3ccccc32)O1	-1.6	i	.	-0.2	.	4.2	10.3	17.3	0.9	1.9
Cc1cc(C)c(C#N)c(SCc2ccc([N+](=O)[O-])cc2)n1	-0.6	i	-7.8	-0.3	0.723	1.3	16.2	11.1	2.8	-5.8
Cc1ccc2c(c1)nnn2C1CCN(CC(=O)Nc2ccc3c(c2)OCCO3)CC1	.	.	6.3	0.1	0.666	2.1	.	.	.	-3.3
COc1cc(SC)ccc1C(=O)NCC1CCCO1 (stereo not given)	.	.	-5.4	-0.2	0.706	2.7	.	.	.	-0.6
CCN1C(=O)/C(=C2\SC(N3CCCCC3)=NC2=O)c2ccccc21	11.4	i	32.0	0.4	0.686	-0.9	-24.0*	0.7*	-4.5*	3.8
CCCc1nnc(NC(=S)Nc2ccccc2)s1	-2.2	i	36.3	-0.1	0.722	-0.3	17.8	13.4	1.5	6.6
CN1C[C@@H]2C(c3ccccc3)C3(c4cccnc4)CC2(C3)[C@H]1c1ccccc1 (stereo not given in full)	3.0	i	-5.1	0.0	.	-0.1	-0.5	-1.1	-2.6	-8.6
Cc1ccccc1-c1nnn(Cc2ccc(F)cc2Cl)n1	-2.4	i	15.4	-0.3	0.662	4.3	-15.4	-20.0	7.5	-1.6
Cc1ccccc1NC(=O)Cn1c(=O)sc2ccccc21	-2.3	i	-4.2	-0.9	0.706	0.1	-1.8	5.6	8.6	0.1
O=C(Cc1ccc(NC(=O)C2CCCN(C(=O)C3CCC3)C2)cc1)Nc1ccc(C(=O)N2CCOCC2)cc1 (stereo not given)	-0.3	.	.	.	0.721	2.0	6.5	10.3	4.8	.
On1c(-c2ccccc2)nc2ccccc21	8.4	i	-2.8	-0.4	0.63	3.7	4.2	23.9	0.3	3.3
Cc1cc(C)nc(N2C(=O)CC(C(C)c3ccccc3)C2=O)n1 (stereo not given)	.	.	-12.4	0.0	0.697	-0.6	.	.	.	-3.5
Cc1ccc(F)cc1N=Cc1c(O)c2ccccc2oc1=O	.	.	-8.6	1.8	0.686	-30.9	.	.	.	-2.0
COc1ccc(N(C(=O)CNS(=O)(=O)c2ccccc2)C(C(=O)NCc2ccco2)C(C)C)cc1 (stereo not given)	2.5	i	-2.6	-0.7	0.688	3.1	-0.6	-7.3	-0.6	2.5
CCOC(=O)CNC(=O)C(Cc1ccccc1)NS(=O)(=O)c1cccs1 (stereo not given)	.	.	.	0.5	0.639	-0.6	.	.	.	-0.6
Cc1cccc(C(=O)OCC(=O)c2cccc(Br)c2)c1O	-1.0	i	1.2	-0.7	0.768	-3.8	10.2	15.4	2.7	-1.2
CC1(c2ccccc2)CC(C)(C)N2C(=O)C3(C(C#N)=C(N)Oc4cc(O)ccc43)c3cccc1c32 (stereo not given)	9.6	i	15.8	0.6	0.625	1.3	-31.0	-31.1	-5.0	-19.4
COc1c(C=O)cc2c3c1CCCN3CCC2	2.1	i	2.6	-0.1	0.628	3.4	-0.6	0.3	4.7	-16.3
COc1ccccc1NC(=O)C(=O)NCCC1CCCCN1S(=O)(=O)c1cccs1 (stereo not given)	0.0	i	18.9	-0.6	0.671	4.8	-3.9	-4.6	-4.3	-4.2
COc1ccc(C2CC(c3ccc4ccccc4c3)=NN2C(=O)COC(=O)C2CCC(=O)N2)cc1 (stereo not given)	14.6	i	2.4	-3.1	0.694	-11.4	-26.2	-31.5	1.6	-10.0
Cc1cc(Br)ccc1NC(=O)CNC(=O)COc1ccccc1C	1.1	i	3.0	-0.2	0.653	0.3	-1.8	5.3	2.3	-4.0
CC1CC1C(=O)OCC(=O)NC(=O)c1ccccc1 (stereo not given)	0.8	i	-11.5	1.0	0.662	2.8	1.1	-3.7	-0.4	-3.2
Clc1ccc(C2=NNC(=NCc3ccc4c(c3)OCO4)SC2)cc1	3.4	i	.	-0.3	0.721	3.4	3.6	13.9	-2.0	-4.1
CCCn1c(=O)c(C(=O)Nc2ncccc2O)c(O)c2ccccc21	-4.6	i	3.9	0.7	0.633	5.0	0.4	0.6	-7.0	.
CCC(=O)c1ccc(OCC(O)CN(C)C2CCCCC2)cc1 (stereo not given)	.	.	12.5	0.4	0.726	3.5	.	.	.	1.1
O=C1OCC/C1=C\c1ccccc1O	.	.	-15.8	-0.3	0.656	3.7	.	.	.	-1.8
Cc1ccc(-n2nc(C(=O)O)nc2-c2ccccc2)cc1	.	.	-2.2	1.9	0.68	2.1	.	.	.	-3.6
COc1cc2cnc(-c3ccccc3)c(-c3ccc(C(F)(F)F)cc3)c2cc1OC	3.5	i	.	2.2	0.738	0.2	10.4	5.0	7.7	-11.1
Cc1cc(C)cc(N(C(=O)c2ccco2)C(C(=O)NC2CCCC2)c2ccncc2)c1 (stereo not given)	-7.8	i	12.8	-0.1	0.645	-0.1	0.1	5.5	-0.8	-1.2
O=C(CCN1CCN(c2ccccc2)CC1)Nc1ccc(OCc2ccccc2)cc1	.	.	-18.8	0.5	0.736	-0.2	.	.	.	7.4
COc1cc(SC#N)ccc1N=Cc1c(C)[nH]n(-c2ccc(C)cc2)c1=O	.	.	19.9	11.1*	0.736	-2.9	.	.	.	?
CCOC(=O)CCC(=O)NCc1ccc2c(c1)cc(C)n2C	.	.	-3.7	-0.7	0.674	3.4	.	.	.	-2.1
O=c1[nH][nH]c(-c2ccccc2)c1-c1ccccc1	-0.6	i	.	.	0.689	0.0	-5.0	-24.1	-4.0	.
CN(C(=O)c1ccc2c(c1)OCO2)C1(C)CCS(=O)(=O)C1 (stereo not given)	-35.0	i	-5.6	-1.3	0.682	0.9	1.7	7.1	-0.7	-1.7
C=CCn1c(SCc2nc3cc(C(=O)OC)ccc3c(=O)[nH]2)nc2sc(CC)cc2c1=O	2.2	i	4.0	-0.2	0.685	-3.8	8.4	5.4	2.5	-1.9
O=C(Nc1nnc(COc2ccccc2)s1)Nc1ccccc1F	36.0*	i	2.1	-0.7	0.649	0.2	6.0	11.4	-1.4	-3.8
CCOc1cc(C(=S)N2CCCC2)ccc1O	1.8	i	-11.9	1.0	0.647	2.6	13.9	6.0	0.4	-2.2
CCCCN(C(=O)CC1CCCC1)c1c(N)n(CCCC)c(=O)[nH]c1=O	-1.9	i	.	-0.3	0.664	0.4	11.6	13.9	-1.5	-0.1
COC(=O)C(=C/C(C)=C/c1cccs1)C(=O)OC	11.6	.	2.2	0.4	.	5.4	-34.9	-44.4	-0.8	-27.4

(continued)
SMILES	MLL AF4-AF9 inh	FGF22 binding	T cruzi inh	Bfl-1 A1 inh	E coli growth	UCH37 DUB inh	Ecoli rRNA inh	Ecoli rRNA inh OD600	Ecoli rRNA inh RFP	Beta cell apopt
CCOCCn1ccc2c(OCC(=O)NCc3ccccc3)cccc2c1=O	0.0	i	-15.3	-0.2	0.672	0.5	4.4	-0.5	1.8	.
N#CC1=C(N)Oc2cc(O)c(Cl)cc2C1c1cccnc1 (stereo not given)	-1.0	.	-3.9	-0.1	0.719	3.6	-6.2	-30.3	23.5	.
O=C(/C=C/c1ccco1)NC(=S)Nc1ccccc1	5.7	i	-15.8	1.3	0.661	3.0	-1.4	7.0	-0.1	-0.4
COC(=O)/C(=C\c1ccc([N+](=O)[O-])cc1)NC(=O)c1ccccc1	-3.8	i	.	.	0.699	5.6	-15.9	-3.9	-0.3	.
